KCNQ1 pot – potentiates or activates the human KCNQ1 potassium channel; CHO-K1 KCNQ1, thallium flux FluxOR fluorescence; hits give high values; B-score at 10 µM; hit rate 0.35% among 310,000;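 active = fluorescence ratio B-score, a plate-corrected score, at least three library SD, with initial intensity B-score within 5 SD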
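System: CHO-K1 cells stably expressing KCNQ1 / Medium: assay buffer for compound exposure, DMSO matched across wells / Reagent: thallium- and potassium-containing depolarizing buffer / Compound: one concentration, matched DMSO / Incubation: 20 min compound pretreatment at room temperature / Measured by: kinetic FluxOR fluorescence, 10 s baseline plus 110 s post-stimulus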
DYRK1A inh – inhibitors of rat Dyrk1A kinase. Q63470. ADP-Glo luminescence, NFATc1 peptide. inhibition, % at 12.5 µM. hit rate 0.43% among 310,000; in the data active = inhibition above about 50%;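 also: plate controls were vehicle with enzyme for no effect and no enzyme for full effect; many of its hits are not listed in these tables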
KCNK3 inh – human KCNK3 channel inhibition, primary screen; CHO-KCNK3 thallium flux, FluxOR fluorescence; hits give low values; AID 602410; hit rate 0.84% among 340,000; O14649; B-score at 10 µM;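 active = B-score under library mean minus 4 SD, starting fluorescence ratio at most library mean plus 5 SD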;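 also: more negative B-score means stronger inhibition of thallium flux through KCNK3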
Platelet DG rel – modulates dense granule release in human platelets | hit rate 0.22% among 300,000 | human platelet-rich plasma, SFLLRN dense granule ATP release, luminescence | AID 1663 | inhibition, %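 (compounds screened at 7.5 µM in platelet-rich plasma)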;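 active = mean replicate score, as percent of positive control, at or above 50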
PolyA inh – inhibitors of polyadenylation in S. cerevisiae | S. cerevisiae SKY197-pL101 polyadenylation reporter, beta-gal luminescence; efflux-impaired pdr1/pdr3 knockout yeast; score 100 = 6 SD above DMSO | calls only at 12 µM | hit rate 0.02% among 300,000;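 active = lowest replicate activity score at least 50, where 100 means six control SD above control mean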;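 also: yeast exposed to compound for 9 h at 30 °C; higher score means more reporter readthrough which indicates perturbed polyadenylation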
KCNK9 inh – human KCNK9 channel inhibition; Q9NPC2; HEK293 KCNK9, FluxOR thallium flux fluorescence; hits give low values; B-score at 10 µM; hit rate 1.2% among 310,000; AID 488922;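 active = ratio B-score over 3 SD below the library mean, with starting fluorescence within 5 SD of its mean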;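 also: negative B-score means less thallium flux so channel inhibition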
TRPC4 inh – TRPC4 (mouse) channel inhibition | Q9QUQ5 | HEK293 TRPC4beta/mu-opioid, DAMGO-evoked Fluo4 calcium flux; hits give low values | B-score at 10 µM | hit rate 0.39% among 300,000 | AID 2247;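 active = B-score over 3 SD under the library average, no early fluorescence shift, positive overall ratio signal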
Target sequence (Q9QUQ5 whole entry, looked up): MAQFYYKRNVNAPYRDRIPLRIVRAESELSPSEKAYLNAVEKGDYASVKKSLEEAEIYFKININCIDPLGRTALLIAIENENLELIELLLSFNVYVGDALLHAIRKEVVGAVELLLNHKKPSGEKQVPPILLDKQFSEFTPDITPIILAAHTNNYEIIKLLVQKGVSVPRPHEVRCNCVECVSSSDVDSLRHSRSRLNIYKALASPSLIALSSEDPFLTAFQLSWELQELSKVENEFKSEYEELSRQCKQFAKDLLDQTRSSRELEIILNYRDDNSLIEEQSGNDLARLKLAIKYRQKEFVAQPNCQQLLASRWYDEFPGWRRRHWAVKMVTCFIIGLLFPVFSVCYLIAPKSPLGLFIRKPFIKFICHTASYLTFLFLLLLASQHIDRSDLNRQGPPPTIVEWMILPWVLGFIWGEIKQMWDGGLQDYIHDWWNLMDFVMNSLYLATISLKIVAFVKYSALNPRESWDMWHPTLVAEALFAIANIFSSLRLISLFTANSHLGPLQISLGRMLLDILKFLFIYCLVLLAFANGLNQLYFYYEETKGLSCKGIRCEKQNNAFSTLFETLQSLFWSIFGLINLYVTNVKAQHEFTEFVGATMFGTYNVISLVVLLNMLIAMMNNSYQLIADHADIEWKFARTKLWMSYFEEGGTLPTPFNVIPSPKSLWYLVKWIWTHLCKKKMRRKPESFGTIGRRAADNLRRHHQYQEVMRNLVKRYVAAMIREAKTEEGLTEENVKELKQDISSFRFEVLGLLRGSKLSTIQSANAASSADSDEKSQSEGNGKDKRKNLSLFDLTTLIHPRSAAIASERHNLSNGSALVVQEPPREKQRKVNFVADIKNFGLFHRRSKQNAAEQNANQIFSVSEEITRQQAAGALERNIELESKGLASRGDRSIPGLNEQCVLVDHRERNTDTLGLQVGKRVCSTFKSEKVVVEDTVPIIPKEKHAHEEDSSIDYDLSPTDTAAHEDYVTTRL
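test system = HEK293 cells with stable TRPC4beta plus mu-opioid receptor expression | detection = Fluo4 Ca2+ flux fluorescence | read-out = integrated fluorescence ratio relative to baseline, converted to per-well B score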
KCNQ1 inh – human KCNQ1 channel inhibition. AID 2642. P51787. B-score at 10 µM. CHO-K1 KCNQ1, FluxOR thallium flux fluorescence; hits give high values. hit rate 1.3% among 310,000;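 active = compounds whose thallium flux B-score, printed positive for inhibition, exceeds three library SD while starting fluorescence stays within three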;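 also: channel opened by potassium depolarization with thallium stimulus after 20 min compound exposure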
TRPC4 PAM – allosterically enhances the mouse TRPC4 cation channel; AID 2227; Q9QUQ5; HEK293 TRPC4beta/mu-opioid, DAMGO EC20, Fluo-4 Ca2+ flux; hits give high values; B-score at 10 µM; hit rate 0.42% among 310,000;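 active = B-score of calcium response area above 5 SD of library B-scores, with initial fluorescence ratio within 5 SD of library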;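 also: B-score of integrated fluorescence ratio over time as area under calcium response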
TRPC4 agonist – activators of mouse TRPC4 channel | HEK293 TRPC4beta/mu-opioid, Fluo4 calcium fluorescence; hits give high values | B-score at 10 µM | hit rate 0.49% among 310,000;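 active = B-score above 5 SD of library B-scores, and initial fluorescence ratio not above library mean plus 5 SD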;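 also: positive B-score marks a calcium rise read as TRPC4 activation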
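Test system: HEK293 cells stably co-expressing mouse TRPC4beta and mu-opioid receptor | Schedule: Fluo4 dye loading 45 min at room temperature, 110 s recording | Measured by: Kinetic Fluo4 calcium fluorescence, 5 s baseline at 1 Hz | Evaluation: B score of integrated ratio | Controls: Buffer (low) and maximal DAMGO (high)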
* hit, by the source's call; i = inactive; x = not tested or not shown; & = joins results of further samples. The list is partial (hit frequency here may not be typical).

1. CC(=O)NS(=O)(=O)c1ccc(NC(=O)/C=C/c2ccco2)cc1
2. CC1=C(/C=C/C(C)=C/C=C/C(C)=C/CO)C(C)(C)CCC1
3. Cn1c(NCCN(CCO)CCCc2ccc([N+](=O)[O-])cc2)cc(=O)n(C)c1=O
4. Nc1ncnc2c1ncn2C1O[C@H](CO)[C@@H](O)[C@@H]1O (stereo partly specified)
5. CSc1ccc(C(=O)c2[nH]c(=O)[nH]c2C)cc1
6. COCCN(CCOC)C(=O)CCn1c(=O)oc2ccccc21
entry no.,1,2,3,4,5,6
DYRK1A inh,-2,-2,4,15,0,1
Platelet DG rel,-51,1,-4,x,12,-5
KCNQ1 pot,i,i,i,x,i,i
KCNK9 inh,i,i,i,x,i,i
TRPC4 agonist,i,i,i,x,i,i
KCNK3 inh,i,i,i,i,i,i
TRPC4 PAM,i,i,i,x,i,i
KCNQ1 inh,i,i,i,x,i,i
PolyA inh,i,i,i,x,i,i
TRPC4 inh,i,i,i,x,i,i

7. COc1ccc(OC2C(=O)N(Cc3ccc4c(c3)OCO4)C2c2cccs2)cc1 (stereo unspecified)
8. COc1ccc(OC)c(S(=O)(=O)N2CCN(c3ccc(F)cc3)CC2)c1
9. Cc1onc(-c2ccccc2Cl)c1C(=O)NNC(=O)C1CCN(Cc2ccccc2)CC1
10. O=C(COc1ccc(Cl)cc1)Nc1ccccc1CO
11. CC1(C)CC2CC(C)(CN2C(=O)c2ccc([N+](=O)[O-])cc2[N+](=O)[O-])C1 (stereo unspecified)
12. CNC(CC(C)C)C(=O)NC1C(=O)NC(CC(N)=O)C(=O)NC2C(=O)NC3C(=O)NC(C(=O)NC(C(=O)O)c4cc(O)cc(O)c4-c4cc3ccc4O)C(O)c3ccc(c(Cl)c3)Oc3cc2cc(c3OC2OC(CO)C(O)C(O)C2OC2CC(C)(N)C(O)C(C)O2)Oc2ccc(cc2Cl)C1O (stereo unspecified)
entry no.,7,8,9,10,11,12
DYRK1A inh,-1,-10,5,-3,1,-10
Platelet DG rel,-2,3,-4,0,-3,7
KCNQ1 pot,i,i,i,i,i,i
KCNK9 inh,i,i,i,i,i,i
TRPC4 agonist,i,i,i,i,i,i
KCNK3 inh,i,i,i,i,i,i
TRPC4 PAM,i,i,i,i,i,i
KCNQ1 inh,i,i,i,i,i,i
PolyA inh,i,i,i,i,i,i
TRPC4 inh,i,i,i,i,i,i

13. CC(C)c1cc(C(C)C)c(S(=O)(=O)N2c3ccccc3[C@]3(Br)C[C@H]4C(=O)N[C@@H](Cc5ccccc5)C(=O)N4[C@H]23)c(C(C)C)c1
14. COc1c(Cl)cnn(-c2ccc(C)cc2)c1=O
15. COc1ccc2[nH]c3c(C)c4ccncc4c(C)c3c2c1
16. Nc1ccn([C@@H]2CS[C@H](CO)O2)c(=O)n1
17. COCCCNC(=O)CC(NS(=O)(=O)c1ccc(C)cc1)c1ccc(OC)cc1 (stereo unspecified)
18. CCN(CC)CCNC(=O)c1ccc(N)cc1
entry no.,13,14,15,16,17,18
DYRK1A inh,x,0,56*,x,x,-2
Platelet DG rel,10,11,-3,-7,-1,-1
KCNQ1 pot,i,i,i,i,i,i
KCNK9 inh,i,i,i,i,i,i
TRPC4 agonist,i,i,i,i,i,i
KCNK3 inh,x,i,i,x,i,i
TRPC4 PAM,i,i,i,i,i,i
KCNQ1 inh,i,i,i,i,i,i
PolyA inh,i,i,i,i,i,i
TRPC4 inh,i,i,i,i,i,i

Laid out differently: entries from further up.
Below each SMILES: DYRK1A inh	Platelet DG rel	KCNQ1 pot	KCNK9 inh	TRPC4 agonist	KCNK3 inh	TRPC4 PAM	KCNQ1 inh	PolyA inh	TRPC4 inh
1) CC(=O)NS(=O)(=O)c1ccc(NC(=O)/C=C/c2ccco2)cc1
 : -2	-51	i	i	i	i	i	i	i	i
2) CC1=C(/C=C/C(C)=C/C=C/C(C)=C/CO)C(C)(C)CCC1
 : -2	1	i	i	i	i	i	i	i	i
3) Cn1c(NCCN(CCO)CCCc2ccc([N+](=O)[O-])cc2)cc(=O)n(C)c1=O
 : 4	-4	i	i	i	i	i	i	i	i
4) Nc1ncnc2c1ncn2C1O[C@H](CO)[C@@H](O)[C@@H]1O (stereo partly specified)
 : 15	x	x	x	x	i	x	x	x	x
5) CSc1ccc(C(=O)c2[nH]c(=O)[nH]c2C)cc1
 : 0	12	i	i	i	i	i	i	i	i
6) COCCN(CCOC)C(=O)CCn1c(=O)oc2ccccc21
 : 1	-5	i	i	i	i	i	i	i	i
7) COc1ccc(OC2C(=O)N(Cc3ccc4c(c3)OCO4)C2c2cccs2)cc1 (stereo unspecified)
 : -1	-2	i	i	i	i	i	i	i	i
8) COc1ccc(OC)c(S(=O)(=O)N2CCN(c3ccc(F)cc3)CC2)c1
 : -10	3	i	i	i	i	i	i	i	i
9) Cc1onc(-c2ccccc2Cl)c1C(=O)NNC(=O)C1CCN(Cc2ccccc2)CC1
 : 5	-4	i	i	i	i	i	i	i	i
10) O=C(COc1ccc(Cl)cc1)Nc1ccccc1CO
 : -3	0	i	i	i	i	i	i	i	i
11) CC1(C)CC2CC(C)(CN2C(=O)c2ccc([N+](=O)[O-])cc2[N+](=O)[O-])C1 (stereo unspecified)
 : 1	-3	i	i	i	i	i	i	i	i
12) CNC(CC(C)C)C(=O)NC1C(=O)NC(CC(N)=O)C(=O)NC2C(=O)NC3C(=O)NC(C(=O)NC(C(=O)O)c4cc(O)cc(O)c4-c4cc3ccc4O)C(O)c3ccc(c(Cl)c3)Oc3cc2cc(c3OC2OC(CO)C(O)C(O)C2OC2CC(C)(N)C(O)C(C)O2)Oc2ccc(cc2Cl)C1O (stereo unspecified)
 : -10	7	i	i	i	i	i	i	i	i
13) CC(C)c1cc(C(C)C)c(S(=O)(=O)N2c3ccccc3[C@]3(Br)C[C@H]4C(=O)N[C@@H](Cc5ccccc5)C(=O)N4[C@H]23)c(C(C)C)c1
 : x	10	i	i	i	x	i	i	i	i
14) COc1c(Cl)cnn(-c2ccc(C)cc2)c1=O
 : 0	11	i	i	i	i	i	i	i	i
15) COc1ccc2[nH]c3c(C)c4ccncc4c(C)c3c2c1
 : 56*	-3	i	i	i	i	i	i	i	i

(continued)
19. CCOc1ccc(/C=N/NC(=O)Cc2cccs2)cc1
20. COc1cc2cc(-c3ccc(O)cc3O)nc(C)c2cc1OC
21. Clc1cccc(Cl)c1NC1=NCCN1
22. O=C(O)c1ccc(N=C2SCC(=O)N2Cc2ccccc2)cc1
23. COc1ccc(C(=O)N2CCN(c3ncccn3)CC2)cc1
24. CC(=O)O[C@H]1C(=O)[C@@]2(C)[C@H]([C@H](OC(=O)c3ccccc3)[C@]3(O)C[C@H](OC(=O)[C@H](O)[C@@H](NC(=O)c4ccccc4)c4ccccc4)C(C)=C1C3(C)C)[C@]1(OC(C)=O)CO[C@@H]1C[C@@H]2O
entry no.,19,20,21,22,23,24
DYRK1A inh,x,-38,x,-5,-4,11
Platelet DG rel,-1,12,-5,6,-5,x
KCNQ1 pot,i,i,i,i,i,x
KCNK9 inh,i,i,i,i,i,x
TRPC4 agonist,i,i,i,i,i,x
KCNK3 inh,i,i,x,i,i,i
TRPC4 PAM,i,i,i,i,i,x
KCNQ1 inh,i,i,i,i,i,x
PolyA inh,i,i,i,i,i,x
TRPC4 inh,i,i,i,i,i,x

25. Cc1cccc(C)c1OCC(C)N (stereo unspecified)
26. CNC(CC(C)C)C(=O)NC1C(=O)NC(CC(N)=O)C(=O)NC2C(=O)NC3C(=O)NC(C(=O)NC(C(=O)O)c4cc(O)cc(O)c4-c4cc3ccc4O)C(O)c3ccc(c(Cl)c3)Oc3cc2cc(c3OC2OC(CO)C(O)C(O)C2OC2C[C@](C)(N)C(O)C(C)O2)Oc2ccc(cc2Cl)C1O (stereo partly specified)
27. OCc1cnc(SCc2ccccc2)n1Cc1ccccc1
28. Cc1ccc(CNC(=O)CNC(=O)c2c(C)nn(C)c2Cl)cc1
29. Cc1ccc(C(=S)N2CCCCCC2)cc1
30. COc1ccc(NC2CS(=O)(=O)CC2NCc2ccccc2)cc1 (stereo unspecified)
entry no.,25,26,27,28,29,30
DYRK1A inh,9,4,0,5,0,-7
Platelet DG rel,-2,x,2,27,4,13
KCNQ1 pot,i,x,i,i,i,i
KCNK9 inh,i,x,i,i,i,i
TRPC4 agonist,i,x,i,i,i,i
KCNK3 inh,i,i,i,i,i,i
TRPC4 PAM,i,x,i,i,i,i
KCNQ1 inh,i,x,i,i,i,i
PolyA inh,i,x,i,i,i,i
TRPC4 inh,i,x,i,i,i,i

31. CCOc1ccccc1C(=O)N(Cc1cccs1)C1CCS(=O)(=O)C1 (stereo unspecified)
32. O=S(=O)(c1cccc2nsnc12)N1CCN(c2ncccn2)CC1
33. O=C(C1CCCCC1)N1CC(=O)N2CCc3ccccc3C2C1 (stereo unspecified)
34. Cc1ccc(OCCNC(=O)/C=C/c2ccc([N+](=O)[O-])cc2)cc1C
35. CC(C)(Sc1cc(C(C)(C)C)c(O)c(C(C)(C)C)c1)Sc1cc(C(C)(C)C)c(O)c(C(C)(C)C)c1
36. O=C1CC[C@@H](C(=O)O)N1
entry no.,31,32,33,34,35,36
DYRK1A inh,5,1,x,0,-1,-10
Platelet DG rel,-1,-9,-1,-1,-5,x
KCNQ1 pot,i,i,i,i,i,x
KCNK9 inh,i,i,i,i,i,x
TRPC4 agonist,i,i,i,i,83*,x
KCNK3 inh,i,i,x,i,i,i
TRPC4 PAM,i,i,i,i,i,x
KCNQ1 inh,i,i,i,i,i,x
PolyA inh,i,i,i,i,i,x
TRPC4 inh,i,i,i,i,i,x

37. CN(C)CCOC(c1ccccc1)c1ccccc1 (tested in a mixture with another compound)
38. CC(C)COCC(CN(Cc1ccccc1)c1ccccc1)N1CCCC1 (stereo unspecified)
39. NCc1ccc(S(N)(=O)=O)cc1
40. O=C(COc1ccccc1)NNC(=O)COc1ccc([N+](=O)[O-])cc1
entry no.,37,38,39,40
DYRK1A inh,3,-2,-6&4,1
Platelet DG rel,0,-1,6,-5
KCNQ1 pot,i,i,i,i
KCNK9 inh,i,i,i,i
TRPC4 agonist,i,i,i,i
KCNK3 inh,i,i,i,i
TRPC4 PAM,i,i,i,i
KCNQ1 inh,i,i,i,i
PolyA inh,i,i,i,i
TRPC4 inh,i,i,i,i
